Hsc70 ATP site = small molecules displacing fluorescent ligand from Hsc70 – biochemical, fluorescence polarization, primary screen (AID 568); 83,000 tested, under 10 active; Hsc70 fluorescence polarization, probe displacement; higher % means a stronger effect; strong numbers were not always called active; displacement, % at 20 µM; hits with a dose series show IC50 in µM;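 active means displacement above 50% without optical interference and an IC50 on retest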;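 further: ATPase domain with a fluorescein-tagged ATP probe; 0% = vehicle and 100% = excess ADP; read after one hour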
MT1-MMP reporter = MT1-MMP gene expression reporter suppression – cell-based, luciferase reporter, luminescence (AID 618); MT1-MMP promoter luciferase reporter cells, luminescence; 0.62% of 87,000 active; calls from a first round at 10 µM; hits with a dose series show EC50 in µM;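 active means over half of the reporter light lost at 10 µM or EC50 under 50 µM; inactive means the rest and hits that failed the dose series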;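 further: actives suppress MT1-MMP promoter-driven transcription so potencies describe inhibitors; HT1080 fibrosarcoma cells; overnight exposure; toxic or luciferase-blocking compounds were not removed from the actives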
WNV protease inh = inhibitors of West Nile virus NS2B-NS3 protease | WNV NS2B-NS3 protease, fluorogenic substrate Ex360/Em465; hits give low values | z-score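 (tested at a level between 10 and 100 µM)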 | 0.18% of 65,000 active | AID 577;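 active means z-score at -3 or under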;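 further: score is relative to mean and spread of the compound wells of a plate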
Target sequence (P06935 1371-1501 limits assumed): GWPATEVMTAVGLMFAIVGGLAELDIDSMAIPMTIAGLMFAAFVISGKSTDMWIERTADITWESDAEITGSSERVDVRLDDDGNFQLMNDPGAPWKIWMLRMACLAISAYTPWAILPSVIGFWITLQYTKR
Target sequence (P06935 1502-1679 limits assumed): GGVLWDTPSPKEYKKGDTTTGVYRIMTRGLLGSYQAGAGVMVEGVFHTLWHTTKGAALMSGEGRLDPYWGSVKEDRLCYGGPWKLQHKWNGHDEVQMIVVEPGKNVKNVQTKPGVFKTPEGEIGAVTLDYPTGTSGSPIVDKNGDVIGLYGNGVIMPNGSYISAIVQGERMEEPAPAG
Numbers without * were called inactive; i = inactive; nt = no result given. Not all compounds are listed; rates above refer to the full screens.

The line under a structure holds: WNV protease inh | Hsc70 ATP site | MT1-MMP reporter
CCC1Oc2ccc(C)cc2N(CC(=O)NCc2cccc(OC)c2)C1=O (stereo not given)
    -0.6 | 4.0% | i
COc1ccc(C2(CNC(=O)c3ccco3)CCOCC2)cc1
    nt | 1.1% | i
CC(C)(C)n1ncc2c(=O)n(CC(=O)NC3CCCCC3)cnc21
    -0.18 | -8.0% | i
CN(C1CCCCC1)S(=O)(=O)c1ccc(Cl)c(C(=O)O)c1
    0.99 | 2.2% | i
Cc1cc(NC(=O)CCCS(=O)(=O)c2nc(-c3cccs3)cc(C(F)(F)F)n2)no1
    1.9 | 1.9% | i
CC(=O)c1sc2ccccc2c1OC(=O)c1ccco1
    -0.61 | 0.4% | i
COc1ccc(-c2nc(CS(=O)CC(=O)NCc3ccco3)c(C)o2)cc1OC (stereo not given)
    -0.24 | 4.0% | i
COC(=O)CNc1nc(-c2cccnc2)nc2ccccc12
    -0.81 | 2.1% | i
CC(=O)C1C(c2ccc(F)cc2)NC(=O)NC1(O)C(F)(F)F (stereo not given)
    -1.2 | -2.4% | i
Cn1c(N2CCOCC2)nc2c1c(=O)n(Cc1ccc(Cl)cc1)c(=O)n2C
    -0.36 | -1.8% | i
COc1ccc(N2CCN(C(c3ccccc3OC)c3nnnn3C3CCCC3)CC2)cc1 (stereo not given)
    -1.4 | 33% | i
CCOC(=O)N1CCN(C(=O)CCSc2ccc(Cl)cc2)CC1
    nt | 3.0% | i
Cc1noc(/C=C/N(C)C)c1S(=O)(=O)N1CCCC(C(=O)NCc2cccs2)C1 (stereo not given)
    -0.09 | 6.9% | i
O=C(c1ccc(F)cc1)N1C2CCC1CC(O)(c1ccccc1F)C2 (stereo not given)
    -0.43 | -10% | i
O=C(Nc1cccnc1)c1ccc(NC(=O)c2ccco2)cc1
    0.49 | 6.6% | i
CCCn1c(N)c(N(C)C)c(=O)n(CC(=O)Nc2ccc(OC(F)(F)F)cc2)c1=O
    0.33 | 7.6% | i
CC(C)c1[nH]nc2c1C1(CCN(Cc3ccccc3)CC1)C(C#N)=C(N)O2
    0.05 | 2.8% | i
CC1(C)CC(c2csc(N)n2)CCO1 (stereo not given)
    0.74 | -1.7% | i
Cc1ccn(Cc2n[nH]c(=S)n2Cc2ccccc2)n1
    nt | 5.6% | i
O=S(=O)(c1ccccc1)c1nc(-c2ccco2)oc1NCCN1CCOCC1
    nt | -5.2% | i

A portion of the results above:
The line under a structure holds: WNV protease inh | Hsc70 ATP site | MT1-MMP reporter
O=C(Nc1cccnc1)c1ccc(NC(=O)c2ccco2)cc1
    0.49 | 6.6% | i
CCCn1c(N)c(N(C)C)c(=O)n(CC(=O)Nc2ccc(OC(F)(F)F)cc2)c1=O
    0.33 | 7.6% | i
CC(C)c1[nH]nc2c1C1(CCN(Cc3ccccc3)CC1)C(C#N)=C(N)O2
    0.05 | 2.8% | i
CC1(C)CC(c2csc(N)n2)CCO1 (stereo not given)
    0.74 | -1.7% | i
Cc1ccn(Cc2n[nH]c(=S)n2Cc2ccccc2)n1
    nt | 5.6% | i
O=S(=O)(c1ccccc1)c1nc(-c2ccco2)oc1NCCN1CCOCC1
    nt | -5.2% | i

Carrying on:
The line under a structure holds: WNV protease inh | Hsc70 ATP site | MT1-MMP reporter
Cc1c(C(=O)O)sc2ncn(C)c(=O)c12
    0.69 | -1.1% | i
Cc1ccc(NCc2nnc(SCC(=O)OC3CCCCC3)o2)c(C)c1
    0.4 | -6.7% | i
COc1ccc(-n2c(=O)cc(N3CC(C)OC(C)C3)[nH]c2=O)cc1 (stereo not given)
    0.5 | 0.0% | i
Nc1ccc(N2CCN(C(=O)c3ccco3)CC2)cc1
    nt | 1.6% | i
O=C(CN1CCC(c2nc3ccccc3s2)CC1)NCc1ccccc1
    nt | -4.1% | i
COc1cccc(Nc2ncnc3c2cnn3C)c1
    1 | 4.1% | i
COC(=O)COc1ccc(S(=O)(=O)Nc2ccc(NC(C)=O)cc2)cc1C
    0.17 | -3.4% | i
CC(C)CN1CN(S(=O)(=O)c2cccs2)c2nc3ccccc3nc21
    0.53 | -3.5% | i
CCOC(=O)c1c(C)c(C(=O)NCc2ccccn2)c(C)n1CC
    -0.19 | 0.8% | i
CCCn1cnc2c(c1=O)c1nc3ccccc3nc1n2CCc1ccccc1
    -0.61 | -3.6% | i
Cc1nn(-c2ccc(F)cc2)c2c1cc(C#N)c1nc3ccccc3n12
    -0.77 | -1.1% | i
Cc1sc2nc(CN(Cc3cccs3)C(=O)C3CC3)[nH]c(=O)c2c1C
    0.54 | 8.2% | i
Clc1ccc(-n2nnnc2Sc2ncnc3sccc23)cc1
    0.19 | -0.6% | i
CC1(C)NC(C)(C)C(O)(C(N)=O)C1=O (stereo not given)
    1.3 | 4.0% | i
Cc1ccc(NS(=O)(=O)c2ccc(C(=O)N3CCN(c4ccccn4)CC3)cc2)cc1
    nt | 0.8% | i
COc1ccc(CCNC(=O)c2ccc(CN3CCOCC3)cc2)cc1
    0.29 | -7.4% | i
CCCCn1c(Nc2ccccc2)nc2ccccc21
    nt | 2.0% | i
CCCNC(=O)NC(=O)CSc1nc2ccccc2n1CC(C)C
    -0.87 | -7.7% | i
CCOc1ccccc1CN1C(=O)c2ccccc2C1C(=O)NCC1CCCO1 (stereo not given)
    -0.16 | 5.1% | i
Cc1ncoc1C(=O)Nc1nccs1
    1.2 | 6.3% | i
CCOC(=O)c1[nH]c(C)c(C(=O)NCCCN2CCOCC2)c1C
    -0.03 | 2.2% | i
COc1ccc(CNC(=O)C2CCCN(S(=O)(=O)c3c(C)n[nH]c3C)C2)cc1 (stereo not given)
    nt | -0.4% | i
C1=C(CCNc2ncnc3c2cnn3-c2ccccc2)CCCC1
    0.49 | -2.7% | i
Cc1ccc(S(=O)(=O)NCCCN2CCOCC2)cc1C
    -0.62 | 7.8% | i
Cc1ccc(-c2cc(C(F)F)n3ncc(C(=O)N4CCN(c5ccccn5)CC4)c3n2)cc1
    -1 | 5.8% | i
O=S(=O)(c1ccccc1)c1nc(-c2ccco2)oc1NCCCN1CCOCC1
    -0.99 | 2.9% | i
COc1ccc(S(=O)(=O)NC(CC(=O)NCC2CCCO2)c2ccco2)cc1 (stereo not given)
    1.1 | 3.2% | i
O=C(Cn1cnc2c(nnn2-c2ccccc2)c1=O)N1CCOCC1
    -0.67 | 2.6% | i
CCOc1ccc(Cn2nnc(C(=O)Nc3ccc(OC)cc3OC)c2N)cc1
    0.09 | 0.1% | i
CCOC(=O)C1CCCc2c1[nH]c1c(C(N)=O)cccc21 (stereo not given)
    nt | 4.4% | i
COc1ccccc1NC(=O)CSc1nnc(-c2ccoc2C)n1CC1CCCO1 (stereo not given)
    nt | 5.1% | i
Cc1cc(C)cc(C(=O)n2cnnc2N)c1
    0.58 | 2.3% | i
COc1cccc(-c2nc(CS(=O)CC(=O)NC3CC3)c(C)o2)c1 (stereo not given)
    0.18 | 1.9% | i
CCN(CCO)c1ccc(-n2c(N)c(C(=O)OC)c3nc4ccccc4nc32)cc1
    -0.17 | -3.6% | i
Cc1ccc(C2CC(c3ccco3)n3ncnc3N2)cc1 (stereo not given)
    nt | 4.5% | i
CCC(=O)Nc1nc2ccccc2n1Cc1ccccc1C
    0.95 | -6.7% | i
COC(=O)C1=C(CSCc2ccco2)NC(=O)NC1c1cc(C)ccc1C (stereo not given)
    0.54 | 0.9% | i
O=C(c1cnn2c(C(F)(F)F)cc(-c3ccc4c(c3)OCO4)nc12)N1CCCC1
    0.58 | -4.5% | i
Oc1ccccc1/C=N/c1c(-c2ccco2)nc2ccccn12
    1.8 | 9.0% | i
CCN1CCN(CC(=O)Nc2ccccc2)C(=O)C1=O
    -1.4 | 3.5% | i
Cc1noc(/C=C/N(C)C)c1S(=O)(=O)NC1CCCCC1
    -0.61 | -0.9% | i
CC(C)Cc1nnc(NC(=O)CSc2nc(=O)cc(N)n2-c2ccccc2)s1
    0.18 | 6.8% | i
COc1ccc(N2CC(C(=O)NCCC3=CCCCC3)CC2=O)cc1 (stereo not given)
    -0.95 | 1.6% | i
CCN1CCN(C(=O)c2cc3cc4cc(OC)ccc4nc3s2)CC1
    2.1 | 4.8% | i
Cc1cc(=O)n2nc(N3CCCC3C(=O)NCCCN3CCCCC3)sc2n1 (stereo not given)
    -1.1 | 2.0% | i
O=C(/C=C/c1ccccc1Cl)c1cccnc1
    nt | 4.5% | i
O=C(CSCc1c(Cl)cccc1Cl)Nc1nccs1
    nt | 0.8% | i
Cc1cc(C(=O)CSc2nnc(-c3ccccc3F)o2)c(C)n1Cc1cccs1
    0.61 | -5.2% | i
Brc1cc(Br)c2ncnc(N3CCCCC3)c2c1
    -0.6 | 4.7% | i
Cc1cc(OCc2nnc(SCC(=O)OC3CCCCC3)o2)ccc1Cl
    -0.58 | 6.7% | i

Next entries:
The line under a structure holds: WNV protease inh | Hsc70 ATP site | MT1-MMP reporter
O=C(NC1C2CC3CC(C2)CC1C3)C1CC1 (stereo not given)
    0.55 | -5.1% | i
COc1ccc(CCNC(=O)C(=O)NCC2CCCO2)cc1OC (stereo not given)
    nt | 2.2% | i
O=c1cc(CN2CCN(c3ccccc3)CC2)c2c(ccc3ccccc32)o1
    0.01 | -4.6% | i
Cc1ccc(N2C(=O)C(Cl)=C(Nc3c(C)n(C)n(-c4ccccc4)c3=O)C2=O)cc1
    -0.93 | -5.3% | i
CCOc1ccc(NC(=O)C(C)O)c(NS(=O)(=O)c2ccc(CCNC(C)=O)cc2)c1 (stereo not given)
    0.2 | 1.3% | i
O=C(COC(=O)CC1CC2CCC1C2)NC(=O)NCc1ccco1 (stereo not given)
    nt | 1.5% | i
Cc1ccc(C(=O)NC2(C(F)(F)F)N=C3SCCN3C2=O)cc1 (stereo not given)
    nt | 3.4% | i
CCn1cc(C(=O)Nc2ccc(C(=O)N3CCCC3)cc2)c(=O)c2ccc(C)nc21
    1.1 | -4.2% | i
COc1ccccc1-c1nc(C(F)(F)F)c(OC)o1
    0.22 | 4.7% | i
O=C(Nc1nccs1)c1ccc(NC(=O)c2ccco2)cc1
    -1.2 | -1.7% | i
C=CCOc1ccc2c(OC)c3ccoc3nc2c1OC
    nt | 3.0% | i
CC(C)Cn1c(Cc2ccccc2)n[nH]c1=S
    nt | -0.3% | i
CCOC(=O)c1[nH]c2ccccc2c1NC(=O)CCN1CC(C)OC(C)C1 (stereo not given)
    nt | -3.1% | i
O=C(c1ccco1)N1CCN(S(=O)(=O)Cc2ccc(Cl)cc2)CC1
    -0.17 | 0.5% | i
N#CCCn1nnc2ccccc21
    0.55 | 1.8% | i
Cc1nonc1NC(=O)c1ccccc1Br
    0.52 | 3.2% | i
COc1cc2cc(CN(Cc3cccnc3)C(=O)NCc3ccccc3)c(=O)[nH]c2cc1OC
    -1.1 | 0.9% | i
Cn1c(Cl)cnc1C1CC(=O)c2cc(Cl)ccc2O1 (stereo not given)
    0.01 | -3.7% | i
COc1ccc(NC(=O)c2c(C)oc3c2CCCC3)cc1
    -1.6 | 6.1% | i
CC1Cc2ccccc2N1C(=O)CSc1nnc2c(n1)[nH]c1ccccc12 (stereo not given)
    1.3 | 3.9% | i
CCN(CCNC(=O)Cn1c(=O)sc2ccccc21)c1ccccc1
    -0.1 | 2.6% | i
Cc1cccc(N(CC(=O)NC2CCCC2)C(=O)CS(=O)CC(=O)Nc2ccc3c(c2)OCO3)c1C (stereo not given)
    nt | 6.3% | i
Cc1cc2c(C)cc(=O)oc2c2c1NCCC2
    10 | 9.7% | i
CCN(CC)c1cc(C)c2ccccc2n1
    nt | -2.8% | i
COc1ccc(/C=N/N2C(=O)CSC2=S)cc1
    nt | 1.7% | i
CC1Cc2ccccc2N1C(=O)CSc1nc2c(c(=O)n(C)c(=O)n2C)n1Cc1ccc(F)cc1 (stereo not given)
    nt | -1.6% | i
CCOC(=O)Cc1csc(NS(=O)(=O)Cc2ccccc2)n1
    1.6 | -6.9% | i
O=C1C2C3C=CC(C3)C2C(=O)N1CCC(=O)N1CCc2ccccc21 (stereo not given)
    nt | 0.3% | i
COc1ccc(OC)c(-n2nnnc2SCC(=O)Nc2ccc3c(c2)OCCO3)c1
    -0.65 | 3.1% | i
CN1C(=O)CCC1(O)c1ccccc1 (stereo not given)
    -0.25 | 0.4% | i
CC(C)c1cc(NC(=O)C(C)(C)C)cc(C(C)C)c1O
    -0.61 | -1.9% | i
COc1cccc(CNC(=O)C(CCSC)NS(=O)(=O)c2ccc3c(c2)oc(=O)n3C)c1 (stereo not given)
    -0.59 | -5.7% | i
O=C(NC12CC3CC(CC(C3)C1)C2)N1CCN(c2nc(-c3ccccc3)cs2)CC1
    nt | -2.9% | i
CCOC(=O)c1cn(CC(=O)Nc2ccc(CC)cc2)nn1
    -1.5 | -0.9% | i
O=C(Nc1sc2c(c1C(=O)O)CCCCC2)c1ccco1
    0.42 | 6.6% | i
CCOC(=O)C1=C(C)C(c2ccc(OC)cc2OC)NC(=O)N1 (stereo not given)
    2.9 | 2.4% | i
CC12CCC(C(=O)N3CCCCC3)(CC1=O)C2(C)C (stereo not given)
    -0.65 | 0.7% | i
O=C(NCc1cccc(F)c1)C1CCN(S(=O)(=O)Cc2ccccc2)CC1
    -2.8 | 5.0% | i
Cc1cc(C)cc(N(CC(=O)O)S(=O)(=O)c2c(C)noc2C)c1
    nt | 2.5% | i
O=C(Nc1ccc2c(c1)OCO2)C(c1ccccc1)N1CCC2(CC1)OCCO2 (stereo not given)
    0.54 | -2.6% | i
